Bioassay records (PubChem)
D2 potentiator = Beta-Arrestin HTS for Positive Allosteric Modulators of the Human D2 Dopamine Receptor: Potentiators; DiscoveRx D2 beta-arrestin cells, luminescence, 90 min; 100% = 57 uM dopamine signal; potentiation, % (no concentration beside the values); AID 624464, 2012; actives 0.23% (n = 360,000); active = potentiation of 50% or more; inconclusive = 30% to 50%; inactive = 30% or less;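 further: compound concentration not given in the record; tested on top of an EC20 dose of dopamine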
Target sequence (P14416 whole entry, looked up): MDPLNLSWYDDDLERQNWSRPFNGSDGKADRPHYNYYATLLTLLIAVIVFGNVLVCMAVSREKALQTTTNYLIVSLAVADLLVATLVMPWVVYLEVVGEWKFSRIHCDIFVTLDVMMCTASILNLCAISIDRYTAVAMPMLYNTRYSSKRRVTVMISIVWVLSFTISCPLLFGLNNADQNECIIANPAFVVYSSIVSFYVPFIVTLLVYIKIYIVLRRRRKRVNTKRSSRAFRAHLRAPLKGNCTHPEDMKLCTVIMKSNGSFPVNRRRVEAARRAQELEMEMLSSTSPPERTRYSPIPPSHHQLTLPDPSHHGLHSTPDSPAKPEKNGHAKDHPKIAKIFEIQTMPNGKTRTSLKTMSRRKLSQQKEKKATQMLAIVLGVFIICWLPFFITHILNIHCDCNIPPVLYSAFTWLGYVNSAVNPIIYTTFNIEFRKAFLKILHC
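PathHunter beta-arrestin assay in DiscoveRx D2 cells. Compounds were added with an EC20 of dopamine (50 nM final) for 90 min at 37 deg C. Luminescence was read 1 h after detection reagent, with 57 uM dopamine as the EC100 control.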
Six1-Eya2 blk = qHTS Assay for Inhibitors of the Six1/Eya2 Interaction; Homeobox protein SIX1 (Homo sapiens) + Protein phosphatase EYA2 (Homo sapiens), …; AlphaScreen GST-Six1/His-Eya2 binding, biochemical; active compounds read low; control for the full effect not named in the record; activity change, % (no concentration beside the values); actives 0.56% (n = 360,000); AID 651725, 2012; in the data active = activity change below about -65%; inconclusive = about -30% to -65%; inactive = above about -30%; further: on the % scale 0 is the no-effect control and ±100 the full control effect
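Compounds are tested against tagged Six1 and Eya2 proteins bridged by glutathione donor and nickel acceptor beads; after a one-hour incubation at 37 °C without light, AlphaScreen emission is recorded.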
PINK1 modulator = A Quantitative High throughput Screen to Identify Chemical Modulators of PINK1 Expression | actives 0.2% (n = 410,000) | Potency, µM (titrated, usually from 76.6 µM), inactives show top-dose activation (PINK1 increase), most hits filed as activators | AID 624263, 2012 | PINK1 immunofluorescence, high-content cytometry, 24 h; active = well fitted activation curve with a large enough effect; inconclusive = small, poorly fitted or top-dose-only effect; inactive = flat fitted curve, though single readings scatter; cell line not stated here;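 further: potency means the concentration at half of the fitted maximal effect; % of control where 0% means no effect; nearly all actives have a fitted effect of over 65% in size; a mitochondrial uncoupler was the plate control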
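PINK1 protein, normally rapidly degraded, was detected by immunofluorescence after 24 hour compound treatment of a stable cell line. Titration data (5 concentrations) came from laser-scanning cytometry, with CCCP-treated wells as controls.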
TRPML1 agonist = qHTS for Agonists of the Human Mucolipin Transient Receptor Potential 1 (TRPML1). Mucolipin-1 (Homo sapiens), Q9GZU1. TRPML1-expressing cells, Ca2+ dye fluorescence, FDSS; host cell line not named in the record; reference of the full effect not given here. activation, % (no concentration beside the values). actives 0.12% (n = 410,000). AID 624414, 2012; in the data active = activation above about 50%; inconclusive = about 30% to 50%; inactive = below about 30%; further: 0% is about no effect; the text of the record puts the active cut at 80%
Target sequence (Q9GZU1 whole entry, looked up): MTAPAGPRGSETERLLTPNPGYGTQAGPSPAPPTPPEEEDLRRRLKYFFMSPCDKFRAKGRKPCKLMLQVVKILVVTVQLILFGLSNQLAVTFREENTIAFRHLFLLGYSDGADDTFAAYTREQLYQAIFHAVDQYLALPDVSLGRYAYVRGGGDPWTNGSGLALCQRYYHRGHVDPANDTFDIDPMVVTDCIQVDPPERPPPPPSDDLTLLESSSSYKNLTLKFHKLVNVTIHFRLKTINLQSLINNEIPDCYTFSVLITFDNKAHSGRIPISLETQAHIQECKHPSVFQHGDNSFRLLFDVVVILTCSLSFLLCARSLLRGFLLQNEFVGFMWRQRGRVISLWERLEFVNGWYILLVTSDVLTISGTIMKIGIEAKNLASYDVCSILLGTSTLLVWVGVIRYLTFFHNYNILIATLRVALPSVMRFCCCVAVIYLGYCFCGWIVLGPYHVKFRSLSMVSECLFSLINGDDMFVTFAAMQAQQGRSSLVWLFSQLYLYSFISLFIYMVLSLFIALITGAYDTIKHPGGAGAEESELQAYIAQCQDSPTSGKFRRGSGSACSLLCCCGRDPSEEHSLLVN
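Kinetic FDSS Ca2+ read in Tet-induced TRPML1-DL cells (ABD Ca8 dye plus quencher, 45-90 min RT loading): baseline, then compound, then 110 s agonist window; EC80 agonist 54-4 at 4uM final added afterwards for a 110 s antagonist window.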
CtBP-E1A inh = qHTS Assay for Inhibitors of the CtBP/E1A Interaction; AlphaScreen GST-E1A/His-CtBP binding, 1536-well; active compounds read low; control for the full effect not named in the record; activity change, % (no concentration beside the values); actives 0.49% (n = 340,000); in the data active means activity change below about -65%; inconclusive means about -30% to -65%; inactive means above about -30%; further: on the % scale 0 is the no-effect control and ±100 the full control effect
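GST-E1A and His-tagged CtBP (125 nM each as 5X stock) were preincubated with pin-transferred compound for 2 h at 37 °C in the dark, then glutathione donor and nickel acceptor beads were added for 1 h before AlphaScreen reading.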
D2 ag = Beta-Arrestin HTS for Positive Allosteric Modulators of the Human D2 Dopamine Receptor: Agonists. AID 624465, 2012. D(2) dopamine receptor (Homo sapiens), P14416. DiscoveRx PathHunter D2 beta-arrestin, luminescence, 90 min; 100% = 57 uM dopamine signal. activation, % (concentration not given with the values). actives 0.084% (n = 360,000); in the data active = activation above about 40%; inconclusive = about 15% to 40%; inactive = below about 15%; further: compound concentration not given in the record; the text of the record calls up to 30% inactive
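DiscoveRx PathHunter D2 beta-arrestin cells (2,100/well) attached overnight, then compound-stimulated 90 min at 37 C in HBSS/10 mM HEPES/0.1% Tween-20 buffer; beta-galactosidase complementation read by luminescence after 1 h at ambient temperature. Dopamine 57 uM final (EC100) as control.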
* marks the source's active call; other numbers are inactive results; ? = inconclusive; . = no result given; [ ] = another dose, or the depositor's remark.

# | mol | D2 potentiator | Six1-Eya2 blk | PINK1 modulator
1 | CC(=O)N(C(C)=O)c1ccc2nc(C)[nH]c(=O)c2c1 | -5 | -1 | 3.0%[38.3 µM]
2 | Cc1ccc(NC(=Nc2ccc(Br)cc2)N2CCOCC2)cc1C | -13 | 0 | 0.4%
3 | CCn1c2ccccc2c2cc(NC(=O)c3cccc(OC)c3)ccc21 | -12 | -7 | 1.3%[38.3 µM]
4 | CCN(Cc1nc(-c2cccc(C)c2)no1)C(=O)c1ccc2c(c1)OCO2 | -20 | -8 | 5.7%
5 | Cc1ccc(C(c2nnnn2C(C)(C)C)N2CCC(C)CC2)cc1 (configuration not stated) | -5 | 1 | -2.7%
6 | Cc1nc(CN2CCC(c3ccccc3)CC2)cc(=O)[nH]1 | -13 | -3 | -1.3%
7 | Cc1ccc2oc3c(c(=O)c2c1)C(c1cccc(Cl)c1)N(CCCN1CCOCC1)C3=O (configuration not stated) | 11 | 5 | 1.0%
8 | Cc1ccc(OCC(O)CN2CCOCC2)cc1C (configuration not stated) | -2 | 6 | 0.0%
9 | O=C(c1ccccc1)c1ccc(N2CCOCC2)cc1 | -12 | 1 | -0.6%
10 | O=C(Nc1ccccc1)N1CCCC(c2nc(-c3cccs3)no2)C1 (configuration not stated) | -12 | 2 | 2.7%[38.3 µM]

# | TRPML1 agonist | CtBP-E1A inh | D2 ag
1 | 1.6 | -7 | 1.6
2 | 0.2 | -10 | -4.3
3 | 1.5 | -6 | -3.4
4 | 2.7 | 4 | -6.9
5 | -0.3 | 2 | -1.4
6 | -0.1 | 0 | -20
7 | 0.9 | -1 | 12
8 | 0.4 | . | -2.7
9 | 0.6 | 5 | -3.2
10 | 2.4 | 0 | -1.9

Following part.
# | mol | D2 potentiator | Six1-Eya2 blk | PINK1 modulator
11 | O=C(CSc1nnc(Nc2ccccc2)s1)NCc1ccco1 | -4 | -5 | -1.1%
12 | CN(c1ccccc1)S(=O)(=O)c1cccc(NS(=O)(=O)c2ccc(/C=C/C(=O)O)cc2)c1 | -2 | 6 | 2.3%
13 | O=c1oc2ccccc2c(NC(c2ccccc2)c2ccccc2)c1[N+](=O)[O-] | -9 | -15 | 3.3%
14 | CCn1c(SCC(N)=O)nnc1-c1cc2c(C)nn(-c3ccccc3)c2s1 | 4 | -23 | 7.5%
15 | CC12Cc3ccc4ccccc4c3C=C1C[N+](C)(C)C2 (configuration not stated) | -11 | 2 | -1.5%
16 | O=C(Nc1ccc2c(c1)OCCO2)c1coc2ccccc2c1=O | -14 | 0 | 0.4%
17 | OC1COC(O)C(O)C1O (configuration not stated) | -4 | 1 | 1.0%
18 | CN(C)/C=N/C1=C(C#N)C(c2ccc(Br)cc2)c2ccc3ccccc3c2O1 (configuration not stated) | 6 | -2 | 22%
19 | COc1ccccc1NC(=O)C(=O)NNS(=O)(=O)c1ccc2ccccc2c1 | -16 | 0 | 0.2%
20 | CCc1c(C)sc(NC(=O)c2cnn3cccnc23)c1C#N | -4 | 3 | 8.0%[38.3 µM]

# | TRPML1 agonist | CtBP-E1A inh | D2 ag
11 | -0.2 | -8 | -0.1
12 | 0.2 | -6 | -0.2
13 | 1.0 | -17 | -4.0
14 | -0.4 | -30 | -5.5
15 | -0.1 | -4 | -0.7
16 | 2.1 | 0 | -4.8
17 | 0.1 | 5 | -2.5
18 | 1.7 | -2 | 3.7
19 | -0.1 | . | -5.5
20 | 0.5 | -2 | -1.0

Next section:
# | mol | D2 potentiator | Six1-Eya2 blk | PINK1 modulator
21 | COc1ccc(CN(C)CCCn2cnc(C(=O)Nc3ccc(C)c(C)c3)n2)cc1OC | . | -1 | -0.3%
22 | COc1cccc2sc(N(C)c3ccccc3)nc12 | -4 | 7 | 1.0%
23 | Cc1cccc(NC(=O)CCCN2C(=O)c3cccc4cccc(c34)C2=O)c1 | 8 | -1 | 5.7%[38.3 µM]
24 | O=C(O)CCc1ncc(C(F)(F)F)cc1Cl | 0 | 4 | 0.2%
25 | CCCCc1ccc(C2C3=C(CC(C)(C)CC3=O)NC3=C2C(=O)c2ccccc23)cc1 (configuration not stated) | -17 | 0 | 1.5%
26 | COc1ccc(OC)c(NC2c3ccccc3C(=O)N2c2cccnc2)c1 (configuration not stated) | 7 | 17 | 1.9%
27 | COC(=O)C1=C(C)N(Cc2ccccc2)C(=NCc2ccc(OC)cc2)N[C@H]1c1ccccc1 | -18 | -11 | 0.1%
28 | CCOc1ccc(-c2nnc(-c3ccncc3)o2)cc1OCC | -1 | -2 | 1.4%
29 | O=C(NCCOc1ccccc1F)c1ccc2c(=O)n3c(nc2c1)CCC3 | 0 | 4 | 2.8%
30 | CCN(CC)CCCN1C(=O)C(O)=C(C(=O)c2cc3ccccc3o2)C1c1ccccn1 (configuration not stated) | -3 | -2 | -0.8%

# | TRPML1 agonist | CtBP-E1A inh | D2 ag
21 | 0.4 | -2 | 0.9
22 | 0.8 | 6 | 0.7
23 | 1.5 | -3 | 0.7
24 | 0.9 | 9 | -4.4
25 | 1.1 | ? | -5.8
26 | 0.7 | 0 | 2.7
27 | 1.5 | -6 | -0.6
28 | -0.2 | 6 | -2.9
29 | -0.2 | 0 | 0.4
30 | -1.0 | -1 | 0.3

Next part:
# | mol | D2 potentiator | Six1-Eya2 blk | PINK1 modulator
31 | Cc1nc(N)sc1-c1ccccc1 | -14 | -15 | 0.3%
32 | Cc1ccc(C)c(NC(=O)CCCCCN2C(=O)[C@@H]3Cc4ccccc4CN3C2=O)c1 | -8 | 2 | -0.8%
33 | CCN1CCN(C(=S)c2ccc(Cl)c(Cl)c2)CC1 | -8 | -9 | -0.4%
34 | CCOc1ncccc1C(=O)N(CC)CC(=O)Nc1ccc(NC(C)=O)cc1 | -4 | 9 | 3.0%
35 | COC(=O)c1ccc(NC(=O)CSc2nc(=O)n3cccc(C)c3n2)cc1 | 5 | ? | -0.4%
36 | COc1ccc(S(=O)(=O)Cc2ccc(C(=O)N3CCOCC3)o2)cc1 | -9 | -1 | 1.3%
37 | CC[n+]1ccc(/C=C/c2ccc(N(C)C)cc2)c2ccccc21 | -34 | -2 | ?
38 | Cc1ccc(CNS(=O)(=O)c2c(C)n(C)c(=O)n(C)c2=O)cc1 | 0 | 6 | -0.6%
39 | Cc1ccc(C)c(OCC(=O)N/N=C/c2ccsc2)c1 | -19 | 4 | 1.8%
40 | COc1cccc(C(=O)OC2CCCN(C)C2)c1 (configuration not stated) | -18 | -1 | 0.2%

# | TRPML1 agonist | CtBP-E1A inh | D2 ag
31 | 0.7 | -15 | -2.7
32 | 3.0 | 1 | 3.5
33 | 0.0 | -7 | -1.7
34 | 0.6 | -5 | -3.0
35 | -0.2 | -17 | -2.8
36 | -0.1 | 2 | -4.7
37 | -0.4 | -10 | -8.4
38 | -0.2 | 4 | -3.0
39 | 1.8 | 7 | -2.5
40 | -0.3 | 2 | -5.2

The results go on.
# | mol | D2 potentiator | Six1-Eya2 blk | PINK1 modulator
41 | Cc1ccccc1OCC(=O)NNC(=O)C1CCN(c2ncnc3sc(C)c(C)c23)CC1 | 24 | -30 | 2.4%
42 | COC(=O)Cn1c(C(O)c2ccccc2)nc2ccccc21 (configuration not stated) | -2 | 0 | -1.0%
43 | NS(=O)(=O)c1ccc(CCNC(=O)CSc2nc3ccccc3c(=O)n2CC2CCCO2)cc1 (configuration not stated) | -8 | 7 | -1.3%
44 | Fc1ccc(N2CCN(c3nc(CN4CCOCC4)nc4scc(-c5ccccc5)c34)CC2)cc1 | -6 | -7 | 2.0%
45 | COc1ccc(CCNC(=O)[C@H](C)N2C(=O)N3CCc4c([nH]c5ccccc45)[C@@]3(C)C2=O)cc1 | -4 | 0 | 0.9%
46 | CC(C)C[C@H](NC(=O)N1CC(=O)Nc2ccccc21)C(=O)N[C@@H](C(=O)O)c1ccccc1 | 3 | 7 | 0.8%
47 | O=C(Nc1ccc(OCC(=O)N2CCOCC2)cc1)Nc1cccc2ccccc12 | 0 | 1 | 1.6%
48 | Clc1ccc(OCCSc2nnnn2C2CCCCC2)cc1 | -12 | 6 | 0.6%
49 | COc1ccccc1S(=O)(=O)Cc1ccc(C(=O)N2CCN(c3ccc(C)cc3)C(C)C2)o1 (configuration not stated) | 4 | -9 | 4.8%
50 | O=c1ccc2cc(S(=O)(=O)NCCCc3ccccc3)ccc2[nH]1 | 4 | 2 | -1.0%

# | TRPML1 agonist | CtBP-E1A inh | D2 ag
41 | 0.3 | -10 | -3.9
42 | -0.1 | . | 2.6
43 | 0.1 | . | -1.8
44 | 0.7 | . | -0.5
45 | -0.1 | -1 | -3.6
46 | 0.7 | 3 | 3.7
47 | 0.7 | 6 | 3.1
48 | 1.0 | 10 | -1.9
49 | 0.5 | -23 | 4.6
50 | 2.9 | 1 | -12

(cont.)
# | mol | D2 potentiator | Six1-Eya2 blk | PINK1 modulator
51 | CN(CC(=O)NCCc1ccc(S(N)(=O)=O)cc1)Cc1ccc(Cl)cc1Cl | -6 | 1 | 0.8%
52 | CC(=O)Oc1ccc(C2(C)CC(C)(C)Oc3cc(OC(C)=O)ccc32)c(OC(C)=O)c1 (configuration not stated) | 0 | -10 | 3.2%
53 | Cc1cccc(-c2nnc(NC(=O)c3ccc(Cl)cc3)o2)c1 | -15 | -5 | ?
54 | FC(F)(F)c1ccccc1Cc1c(C2CCCCC2)nc2ccc(Br)cn12 | -7 | 0 | ?
55 | CCOc1ccc(C2C(C(=O)OC)=CN(CCOC)C=C2C(=O)OC)cc1 | -2 | 10 | 1.2%[38.3 µM]
56 | O=C(NCC1CCN(Cc2ccccc2F)CC1)Nc1ccccc1F | -33 | -11 | -0.1%
57 | CCCC1(C(=O)OCC)NC(c2cc(OC)c(OC)c(OC)c2)C2C(=O)N(CC)C(=O)C21 (configuration not stated) | -5 | 14 | 0.3%

# | TRPML1 agonist | CtBP-E1A inh | D2 ag
51 | -0.9 | -4 | -12
52 | 0.6 | -3 | 1.6
53 | 12 | -8 | -3.4
54 | 0.1 | 8 | -3.4
55 | -0.1 | 8 | -1.9
56 | -0.1 | -22 | -4.4
57 | 0.5 | -5 | -2.2

Random excerpt: five records from the list, in no set order.
# | mol | D2 potentiator | Six1-Eya2 blk | PINK1 modulator
56 | O=C(NCC1CCN(Cc2ccccc2F)CC1)Nc1ccccc1F | -33 | -11 | -0.1%
55 | CCOc1ccc(C2C(C(=O)OC)=CN(CCOC)C=C2C(=O)OC)cc1 | -2 | 10 | 1.2%[38.3 µM]
51 | CN(CC(=O)NCCc1ccc(S(N)(=O)=O)cc1)Cc1ccc(Cl)cc1Cl | -6 | 1 | 0.8%
54 | FC(F)(F)c1ccccc1Cc1c(C2CCCCC2)nc2ccc(Br)cn12 | -7 | 0 | ?
52 | CC(=O)Oc1ccc(C2(C)CC(C)(C)Oc3cc(OC(C)=O)ccc32)c(OC(C)=O)c1 (configuration not stated) | 0 | -10 | 3.2%

# | TRPML1 agonist | CtBP-E1A inh | D2 ag
56 | -0.1 | -22 | -4.4
55 | -0.1 | 8 | -1.9
51 | -0.9 | -4 | -12
54 | 0.1 | 8 | -3.4
52 | 0.6 | -3 | 1.6
